KCNQ2 pot: potentiators of rat KCNQ2 potassium channel; Potassium voltage-gated channel subfamily KQT member 2 (Rattus norvegicus), O88943; CHO-K1 KCNQ2, FluxOR thallium flux fluorescence; hits give high values; B-score at 10 µM; hit rate 0.54% among 310,000;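 active means fluorescence ratio B-score at least 3 SD of library B-scores, with initial fluorescence B-score within 3 SD, cut at about 5.3 in these data; same plate scores as AID 2156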;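 further: B-score of peak minus minimum over baseline fluorescence ratio after K+ and Tl+ stimulus; positive B-score means potentiation of KCNQ2 with more thallium influx and brighter signal; only the inactives scoring about 0 or higher are listed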
Target sequence (O88943 whole entry, looked up): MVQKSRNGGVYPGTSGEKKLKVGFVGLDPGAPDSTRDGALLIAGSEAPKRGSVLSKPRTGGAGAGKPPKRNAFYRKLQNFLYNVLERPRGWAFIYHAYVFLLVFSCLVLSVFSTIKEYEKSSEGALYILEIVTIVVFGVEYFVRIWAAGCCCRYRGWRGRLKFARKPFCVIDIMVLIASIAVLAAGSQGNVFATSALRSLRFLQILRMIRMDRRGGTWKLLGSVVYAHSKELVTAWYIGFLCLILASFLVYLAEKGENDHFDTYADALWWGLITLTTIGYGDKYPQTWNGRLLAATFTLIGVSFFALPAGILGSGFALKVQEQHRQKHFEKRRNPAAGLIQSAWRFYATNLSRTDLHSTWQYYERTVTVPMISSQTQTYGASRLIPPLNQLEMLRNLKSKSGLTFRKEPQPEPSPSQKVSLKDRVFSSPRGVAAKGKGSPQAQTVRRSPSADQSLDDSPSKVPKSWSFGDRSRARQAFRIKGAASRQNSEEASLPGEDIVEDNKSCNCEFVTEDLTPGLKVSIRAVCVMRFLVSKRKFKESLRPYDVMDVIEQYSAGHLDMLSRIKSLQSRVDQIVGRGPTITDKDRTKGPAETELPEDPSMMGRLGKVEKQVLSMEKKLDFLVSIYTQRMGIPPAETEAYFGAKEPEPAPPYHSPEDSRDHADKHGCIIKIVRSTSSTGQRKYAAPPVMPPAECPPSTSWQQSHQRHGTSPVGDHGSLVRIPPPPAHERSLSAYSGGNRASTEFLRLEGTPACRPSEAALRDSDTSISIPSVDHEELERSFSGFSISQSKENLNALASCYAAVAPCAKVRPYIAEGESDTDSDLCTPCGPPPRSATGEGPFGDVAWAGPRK
KCNQ2 pot baseline: recorded beside KCNQ2 pot, whose call it bears; B-score; compound at 10 µM; measured here: initial fluorescence intensity artifact check;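 brightness before thallium and not channel activity; 0 = typical well and far values either way flag optical interference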
* marks the source's active call; other numbers are inactive results. These rows are one share of the data; rates above refer to the full screens.

SMILES	KCNQ2 pot	KCNQ2 pot baseline
Cc1cc(NC(=O)CSc2nc3cc(Cl)ccc3c(=O)n2Cc2ccco2)no1	1.91	0.95
COc1sc(SC)cc1/C=N/NC(=O)c1ccncc1	2.29	-0.04
N#Cc1c(Cl)nsc1NN	0.6	-1.39
C[C@H](NC(=O)C1CC(=O)N(c2ccc3c(c2)OCCO3)C1)C(=O)N1CCC(C(=O)O)CC1 (stereo not given in full)	0.04	0.05
CN(C)CCNC(=O)C(C(=O)c1ccccc1)n1ccccc1=O (stereo not given)	0.5	0.71
COc1ccc(C(=O)COC(=O)CNC(=O)c2ccc(Cl)cc2Cl)c(OC)c1	1.37	-2.8
COc1cccc(NC(=O)c2ccccc2-c2ccccc2)c1	0.02	-1.18
CCN(C(=O)COC(=O)c1cc(NS(=O)(=O)c2ccc(Cl)c([N+](=O)[O-])c2)ccc1O)C1CCCCC1	1.3	-2.19
C=CCOc1c(Cl)cc(/C=N/O)cc1OC	1.23	-1.2
CC(N=C1NS(=O)(=O)c2ccccc21)C(=O)NCc1ccc2c(c1)OCO2 (stereo not given)	0.24	-0.72
Cc1nn(C(C)C(=O)NCc2ccc(Cl)cc2)c(=O)c2cc3occc3n12 (stereo not given)	0.72	1.4
CCCOc1ccc2c3c(c(=O)oc2c1)CCCC3	2.43	1.85

As entered above:
COc1cccc(NC(=O)c2ccccc2-c2ccccc2)c1 in KCNQ2 pot = 0.02
COc1ccc(C(=O)COC(=O)CNC(=O)c2ccc(Cl)cc2Cl)c(OC)c1 in KCNQ2 pot baseline = -2.8

More records
SMILES	KCNQ2 pot	KCNQ2 pot baseline
Cc1c(S(=O)(=O)N2CCN(c3cccc(C(F)(F)F)c3)CC2)c(=O)n(C)c(=O)n1C	9.58*	-4.09*
O=C(NN1C(=O)CSC1=S)C(=O)NN1C(=O)CSC1=S	0.65	-0.04
O=C(COC(=O)/C=C/c1ccc(Br)o1)Nc1ccc2[nH]c(=O)[nH]c2c1	1.43	0.64
CCCNC(=O)COC(=O)CCC(=O)c1cccs1	0.12	0.98
C/C(=C1/SC(N2CCOCC2)=NC1=O)c1ccc(Br)cc1	1.82	-0.65
COc1ccc(OC)c(NC(=O)N[C@H](Cc2ccccc2)C(=O)NN)c1	0.82	0.06
CC(NC(=O)c1ccco1)C(=O)NC(C)c1cc(F)c(Cl)cc1Cl (stereo not given)	1	-1.37
CCN(CC)S(=O)(=O)c1cc(NC(=O)C2CCN(c3ncnc4sc(C)c(C)c34)CC2)ccc1Cl	0.83	-0.08
CC(=O)Nc1ccccc1OCc1nnc(-c2cccs2)o1	1.78	-0.87
CCN(CC)CC(C)OC(=O)c1ccccc1Cl (stereo not given)	0.62	-1.62
O=C(COC(=O)C1CC1)c1c[nH]c2ccccc12	1.59	0.43
O=C(NC(=S)Nc1nc(-c2ccccc2)cs1)c1cccnc1	0.91	-0.35
O=C(NCCCN1CCOCC1)c1ccc(/C=C2\Oc3ccccc3N(Cc3ccccc3F)C2=O)cc1	0.88	-0.26
COc1ccccc1C(=O)Nc1nc(C)cc(C)n1	2.28	0.36
COCCN(C(=S)Nc1ccc(OC)cc1)C1CCN(C(C)C)CC1	0.13	0.9
O=C(CSc1nncs1)NCc1ccc(F)cc1	0.01	1.16
Cc1cccc(N2CN=C3SCC(=O)N3C2)c1	0.09	0.18
O=C(NCc1nnc(SCC(=O)N2CCN(c3ccccc3)CC2)o1)c1ccccc1	0.26	0.68
Cc1ccc(S(=O)(=O)NC(Cc2c[nH]c3ccccc23)C(=O)O)cc1 (stereo not given)	0.35	-0.09
CCOC(=O)c1cccc(NS(=O)(=O)c2c(C)[nH]c(=O)[nH]c2=O)c1	1.6	0.32
CCN(CC)C(=O)CSc1nc2cc(S(=O)(=O)N3CCOCC3)ccc2n1CC	0.42	-0.32
CCOC(=O)c1c(C)[nH]c(C(=O)OCC(=O)Nc2ccc(OC)c(Cl)c2)c1C	1.13	-1.95
CS(=O)(=O)Nc1nnc(SCC(=O)Nc2cccc([N+](=O)[O-])c2)s1	0.29	0.63
COC(=O)c1cc(Cl)nc2ccccc12	0.45	-1.89
COc1ccc2cc(C(=O)C3CCCN(C(=O)CSc4nnc(C)o4)C3)ccc2c1 (stereo not given)	0.01	-1.08
COc1ccc(NC(=O)c2ccco2)cc1NC(=O)c1ccc(C#N)cc1F	1.32	-0.54
O=C1c2ccccc2C(=O)N1CCC(=O)N1CCCc2ccccc21	0.59	0
O=C(CN1C(=O)NC2(CCCC2)C1=O)Nc1nc(-c2ccccc2)cs1	0.3	-0.27
O=C(Nc1nnc(SCc2ccc(Cl)cc2Cl)s1)C1COc2ccccc2O1 (stereo not given)	1.81	0.02
CCCCC[n+]1ccn(-c2nc3ccccc3nc2[N-]S(=O)(=O)c2ccccc2)c1	2.52	-1.07
O=C(C(=O)N1CCN(c2ccccc2F)CC1)c1c[nH]c2ccccc12	1.06	-0.35
COc1ccc([N+](=O)[O-])cc1NC(=O)C(C)OC(=O)C1CCC1 (stereo not given)	0.68	-2.02
Cc1ccc(C)c(S(=O)(=O)N2CCN(C(=O)Cc3ccsc3)CC2)c1	1.23	0.78
CCOc1cccc(C(=O)Nc2ccc3oc(-c4cccnc4)nc3c2)c1	1.52	-1.74
O=c1[nH]c(CS(=O)(=O)c2ccccc2)nc2ccccc12	0.12	1.44
COc1ccc(C2CC(c3cccs3)=NN2C(=O)c2ccco2)cc1OC (stereo not given)	0.02	1.25
CN=C(Nc1ccccc1OC)SC1CC(=O)N(c2ccc(C(=O)OC)cc2)C1=O (stereo not given)	1.22	0.65
CN(C)S(=O)(=O)c1ccc(NC(=O)Cc2ccc(S(=O)(=O)N3CCOCC3)s2)cc1	0.04	0.66
CC(C)=CCCC(C)NC(=O)NC1CCCCC1 (stereo not given)	6.7*	0.79*
Cc1cnc(NC(=O)CSc2nnc(C)s2)s1	0.46	2.15
O=C(C1CC(=O)N(c2ccc(Cl)cc2)C1)N1CCC(c2nc3ccccc3[nH]2)CC1 (stereo not given)	0.26	0.13
Cc1cc(Cl)ccc1NC(=O)/C=N/O	1.2	2.47
CC(=O)NC1=C(C#N)C(c2ccccc2)c2c(ccc3ccccc23)O1 (stereo not given)	0.81	-0.29
COC(=O)c1ccc(NC(=O)C2CCCN2S(=O)(=O)c2ccc(C)cc2)cc1 (stereo not given)	0.01	2.08
CC(=O)Nc1ccc(NC(=O)CNC(=O)COc2ccccc2)cc1	1.04	-0.47
O=C1NC(Nc2ccccn2)(C(F)(F)F)C(=O)N1c1ccc(F)cc1 (stereo not given)	0.22	0.38
O=C(Nc1ccc2[nH]c(=O)[nH]c2c1)c1ccc(Br)o1	1.14	-2.52
C=CCN(c1ccccc1)S(=O)(=O)c1cccc(C(=O)OCC(=O)NCCOC)c1	1.29	-0.19
C=CCN(c1ccc(C(=O)NCCc2ccccc2)cc1)S(C)(=O)=O	0.58	0.46
CC(=O)c1cccc(Nc2nc(-c3ccccc3)cs2)c1	0.09	0.08
Cc1cc(NC(=O)c2cc3n(n2)C(C(F)(F)F)CC(c2ccc(Cl)c(Cl)c2)N3)no1 (stereo not given)	0.25	-0.4
COc1ccc(/C(O)=C2\C(=O)C(=O)N(CC3CCCO3)C2c2cc(OC)ccc2OC)cc1 (stereo not given)	0.5	-0.77
C=CCc1cccc2cc(C(=O)Nc3ccc(CC(=O)O)cc3)c(=O)oc12	1.34	-2.53
O=C(N/N=C/c1cccc(F)c1)c1cc(-c2ccco2)nc2ccccc12	1.31	0.6
CCn1c(C)cc2c(c1=O)C(c1ccncc1)C(C#N)=C(N)O2 (stereo not given)	1.4	0.05
O=C(c1ccc(S(=O)(=O)N2CCCC2)cc1)N(c1ccccc1)C1C=CS(=O)(=O)C1 (stereo not given)	0.24	-1.43
CC(C)(C)N1C(=O)c2ccc(C(=O)Nc3nccs3)cc2C1=O	0.01	-2.35
COc1ccc(OC)c(NC(=O)COC(=O)COc2c(Cl)cc(Cl)c3ccc(C)nc23)c1	0.34	0.38
CC(C)CNC(=S)NC1CC2CCCC(C1)N2Cc1cccs1 (stereo not given)	1.1	1.05
O=C(COc1ccc2c(-c3ccccc3)cc(=O)oc2c1)N[C@@H](Cc1c[nH]c2ccc(O)cc12)C(=O)O	0.05	-0.25

(cont.)
SMILES	KCNQ2 pot	KCNQ2 pot baseline
CC(=O)Nc1ccccc1OC(=O)N1CCOCC1	0.45	3.35
O=C(Nc1ccc(N2CCOCC2)c(Cl)c1)C1CCCCC1	0.05	1.17
CCCCCCCCC(=O)N1CCN(c2cc3c(cc2F)c(=O)c(C(=O)O)cn3CC)CC1	1.98	-0.43
CCCCN(C)CCCNC(=O)c1ccc2c(c1)NC(=O)C(N1CCOCC1)S2 (stereo not given)	1.05	0.06
O=C(c1cc(-c2ccc(F)cc2)on1)N1CCCc2ccccc21	0.85	-0.9
CCOc1ccccc1NC(=O)C(C)N1C(=O)c2ccccc2S1(=O)=O (stereo not given)	0.02	-0.13
CC(C)CC(=O)NC1(C(F)(F)F)C(=O)Nc2c1c(=O)[nH]c(=O)n2Cc1ccco1 (stereo not given)	0.73	-0.82
O=C(O)/C=C/C(=O)N1CCN(S(=O)(=O)c2cccc(C(F)(F)F)c2)CC1	0.71	1.45
COC(=O)Cc1csc(Nc2c(C)n(C)n(-c3ccccc3)c2=O)n1	0.68	-2.1
O=C(CNC(=O)C12CC3CC(CC(C3)C1)C2)N1CCN(S(=O)(=O)/C=C/c2ccccc2)CC1	0.36	-0.05
FC(F)(F)c1cccnc1N1CCN(c2ncnc3nc[nH]c23)CC1	0.17	-0.88
O=C(O)c1cccc(NS(=O)(=O)c2cccc(C(=O)Nc3ccccc3[N+](=O)[O-])c2)c1	0.02	-0.02
CCOc1ccc(CCNC(=O)COC(=O)C2CCN(c3ccc(C(F)(F)F)cn3)CC2)cc1OCC	0.5	0.14
Cc1ccc(S(=O)(=O)N(C)C)cc1NC(=O)COC(=O)c1ccc(Cl)cc1	0.25	1.7
Cc1ccccc1CCNC(=O)C1CCC(=O)N(Cc2ccc(Cl)cc2)C1 (stereo not given)	0.06	-1.29
CNc1ccccc1C(=O)OCC(=O)N(CCOC)c1c(N)n(CC(C)C)c(=O)[nH]c1=O	0.18	1.42
Cc1ccc(C(=O)N2CCCC(c3ccc(Cl)cc3)=N2)cc1	0.07	-0.74
CCc1cc(=O)oc2cc(OCc3ccc(C(=O)O)o3)ccc12	1.03	-0.07
O=C(O)c1cc2c(cc1Br)OCCCO2	1.81	0.01
CCCCC(=O)NC(=S)Nc1cccc(NC(=O)CC)c1	0.86	0.36
COc1cc(CNc2cccc(C(=O)O)c2)cc(Br)c1OCC(=O)NC(C)(C)C	0.68	-1.58
O=C(Nc1ccccc1Cl)c1ccc(S(=O)(=O)N2CCOCC2)cc1	1.44	0.44
CC(=O)Nc1cccc(-c2csc(NCc3ccccc3)n2)c1	0.19	-0.2
CSc1cccc(NC(=S)N(CCC(C)C)C2CCN(C(C)C)CC2)c1	3.37	0.16
O=C(CCC(=O)OCC(=O)c1ccc(-c2ccccc2)cc1)Nc1cccc(Cl)c1	0.38	0.92
Clc1ccc2ccc3cccnc3c2n1	0.49	-0.92
CCn1cc(Br)c(C(=O)Nc2ccc(Cl)c(Cl)c2)n1	0.3	-0.12
CC(C)(C)c1cc(NC(=O)c2cccnc2)no1	0.35	0.19
CC(=O)Nc1cccc(N2CCCC2=O)c1	1.21	-2.08
CNC(=O)/C(C#N)=C\c1cc(C)n(-c2ccc(N3CCOCC3)cc2)c1C	0.09	-1.35
CCOc1ccc(NC(=O)COC(=O)Cn2cnnn2)cc1OCC	0.78	0.46
CC1(C)CC2(CCO1)OC(=O)CC2C(=O)Nc1ccc(Cl)cc1[N+](=O)[O-] (stereo not given)	0.22	-0.08
COc1cc(/C=C2\SC(=N)N(c3ccc4c(c3)OCO4)C2=O)cc(OC)c1O	1.26	-1.33
CN1C(C(=O)NCc2cccs2)=CC(c2ccc(F)cc2)=NS1(=O)=O	2.08	0.53
CCOC(=O)c1cccc(NC(=O)C2CCN(S(=O)(=O)c3cnc[nH]3)CC2)c1	0.05	-0.01
O=C(Nc1ccc(NC(=O)c2ccccc2O)cc1)Nc1ccc(F)cc1F	1.57	-0.32
COc1ccc(-c2[nH]ncc2C=O)cc1	0.35	-0.19
CC(=O)Oc1ccc(-c2csc(Nc3cccnc3)n2)cc1	0.1	0.8
Cn1c(SCC(=O)c2ccc3c(c2)Cc2ccccc2-3)nnc1-c1cccc(N)c1	1.1	-0.3
Cc1ccc(NC(=O)CCc2c(C)nn(-c3ccc(N4CCOCC4)nn3)c2C)c(C)c1	0.07	-1.05

Some of these compounds in order of formula weight, smallest number first.
SMILES	KCNQ2 pot	KCNQ2 pot baseline
COc1ccc(-c2[nH]ncc2C=O)cc1	0.35	-0.19
CN1C(C(=O)NCc2cccs2)=CC(c2ccc(F)cc2)=NS1(=O)=O	2.08	0.53
O=C(Nc1ccc(NC(=O)c2ccccc2O)cc1)Nc1ccc(F)cc1F	1.57	-0.32
COc1cc(/C=C2\SC(=N)N(c3ccc4c(c3)OCO4)C2=O)cc(OC)c1O	1.26	-1.33
Cn1c(SCC(=O)c2ccc3c(c2)Cc2ccccc2-3)nnc1-c1cccc(N)c1	1.1	-0.3
Cc1ccc(NC(=O)CCc2c(C)nn(-c3ccc(N4CCOCC4)nn3)c2C)c(C)c1	0.07	-1.05

Entries of single compounds, looked up by structure.
`CC(=O)Oc1ccc(-c2csc(Nc3cccnc3)n2)cc1` is entered as KCNQ2 pot = 0.1; KCNQ2 pot baseline = 0.8
`COc1ccc(-c2[nH]ncc2C=O)cc1` is entered as KCNQ2 pot = 0.35; KCNQ2 pot baseline = -0.19
